ALR inh – human ALR oxidase inhibition via reduced H2O2; purified ALR, DTT oxidation, H2O2 HRP-luminol luminescence; inhibition, % (concentration not given with the values); actives 3.8% (n = 290,000); AID 485317;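 active = mean and each replicate at 75% or more; inconclusive = only one of the two met; inactive = neither met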;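 also: stock transfer was 7.5 nL into about 7.5 µL; 0% = neutral wells and 100% = wells with inactivated enzyme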
Target sequence (P55789 whole entry, looked up): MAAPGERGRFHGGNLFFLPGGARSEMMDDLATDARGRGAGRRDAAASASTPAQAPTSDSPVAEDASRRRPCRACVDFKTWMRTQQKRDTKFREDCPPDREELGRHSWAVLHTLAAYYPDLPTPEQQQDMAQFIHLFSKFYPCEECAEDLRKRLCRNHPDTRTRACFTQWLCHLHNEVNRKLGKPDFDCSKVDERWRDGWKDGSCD
UCH37 DUB inh – human UCH37 deubiquitinating enzyme inhibition; Q9Y5K5; purified proteasome/UCH37, Ub-AMC cleavage fluorescence; inhibition, % (no concentration beside the values); actives 0.33% (n = 330,000);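 active = mean of two replicates above 20%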;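 also: 0% = compound-free wells with enzyme and 100% = wells lacking proteasome; stock transfer was 100 nL into about 20 µL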
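Material: human UCH37 enzyme supplied as purified proteasome complex / Amount: 0.15 nM proteasome as dispensed / Buffer or medium: pH 7.4 Tris-HCl (50 mM) with ovalbumin, ATP-MgCl2, DTT / Times: preincubation 30 min, reaction 25 min, room temperature / Technique: AMC fluorescence from Ub-AMC cleavage, excitation 355 nm, emission 460 nm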
rRNA inh HTS – inhibitors of bacterial rRNA selective over humanized ribosomes | GFP signal change (wild-type ribosome), % (concentration not given with the values) | E. coli WT GFP vs humanized-ribosome RFP mutants, fluorescence, 24 h; active compounds read low; DMSO median 0, no signal -100 | AID 720706 | actives 1.6% (n = 350,000);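 active = significant combined selectivity score with lowered wild-type GFP, culture density cut under 30%, mutant RFP and density less affected; inactive = any of these conditions unmet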; also: one replicate is shown; some compounds called inactive have numbers as strong as hits
HNF4A DNA FP – change in binding of human HNF4 alpha to DNA; AID 1224865; P41235; actives 0.3% (n = 360,000); activity change, % at 10 µM; HNF4a-FITC DNA binding, fluorescence polarization, 1 h; in the data active = activity change above about 30%, passing the limit was not always enough;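 also: controls were the assay level and a saturating level of protein; the project sought stronger binding though the title names inhibitors; some compounds called inactive have numbers as strong as hits; positive values seem to mean higher polarization but the record does not say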
Target sequence (P41235 whole entry, looked up): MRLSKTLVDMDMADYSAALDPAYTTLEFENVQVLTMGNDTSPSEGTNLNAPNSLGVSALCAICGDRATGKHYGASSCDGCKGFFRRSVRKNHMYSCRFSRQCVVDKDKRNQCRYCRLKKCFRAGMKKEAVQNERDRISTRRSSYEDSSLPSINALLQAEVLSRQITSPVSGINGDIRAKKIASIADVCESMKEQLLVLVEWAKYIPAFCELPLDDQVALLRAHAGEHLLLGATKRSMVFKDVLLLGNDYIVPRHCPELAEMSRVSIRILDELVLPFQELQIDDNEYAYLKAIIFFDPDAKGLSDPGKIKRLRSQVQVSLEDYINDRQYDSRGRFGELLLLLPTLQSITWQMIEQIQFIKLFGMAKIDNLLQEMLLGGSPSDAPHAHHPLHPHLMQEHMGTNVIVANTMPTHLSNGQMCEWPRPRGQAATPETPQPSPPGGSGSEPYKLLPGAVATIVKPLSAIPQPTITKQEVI
E coli growth – E. coli growth inhibition | Escherichia coli growth, OD600, 23 h; active compounds read low | OD600 absorbance (concentration not given with the values) | actives 0.21% (n = 330,000);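 active = OD600 absorbance below the run mean of sample wells minus 3.6 SD, in any replicate, cut at about 0.56 in these data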;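 also: stock transfer was 300 nL into about 60 µL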
FGF22 binding – shifts melting point of recombinant human FGF22; actives 1.5% (n = 340,000); recombinant FGF22 thermal shift, SYPRO orange fluorescence; percent of sucrose octasulfate shift, DMSO zero; Q9HCT0; calls only at 9.99 µM;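 active = melting point raised past a set limit in the mean and every replicate; inconclusive = no clear call; three in four hits are not shown here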
Target sequence (Q9HCT0 whole entry, looked up): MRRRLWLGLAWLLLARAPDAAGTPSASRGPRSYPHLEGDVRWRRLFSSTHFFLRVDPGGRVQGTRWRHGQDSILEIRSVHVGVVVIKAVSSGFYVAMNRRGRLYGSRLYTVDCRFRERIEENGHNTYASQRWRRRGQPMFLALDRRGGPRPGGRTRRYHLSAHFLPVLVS
Beta2AR agonist – activates human beta-2 adrenergic receptor causing internalization | P07550 | Am2.2-beta2AR cells, FAP receptor internalization, flow cytometry; reference of the scale not given here | response, % (no concentration beside the values) | actives 0.43% (n = 340,000) | AID 504454;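 active = response above a set limit, near 3 SD of response in nonfluorescent compounds, cut at about 42% in these data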;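 also: stock transfer was 100 nL into about 11 µL; a reference agonist was the positive control; negative values mostly stem from fluorescent compounds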
rRNA inh HTS OD600 – recorded beside rRNA inh HTS, whose call it bears; OD600 change, %; measured here: OD600 growth;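 optical density of the mix in the first replicate; 0 = DMSO median and -100 = no signal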
rRNA inh HTS RFP – also measured in rRNA inh HTS; calls as there; RFP signal change, %; measured here: RFP humanized mutant strains;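 first replicate; 0 = DMSO median and -100 = no signal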
The depositor's hits bear a star; i = inactive; ? = inconclusive; nt = not tested or not shown; & = joins results of further samples.

SMILES	ALR inh	UCH37 DUB inh	rRNA inh HTS	rRNA inh HTS OD600	rRNA inh HTS RFP	HNF4A DNA FP	E coli growth	FGF22 binding	Beta2AR agonist
Cc1cc(OCCCC(=O)NCCc2ccccn2)ccc1Cl	10	-1.5	0	-5	-0.2	0.0	0.71	nt	0
Cc1cc(C)c2[nH]c(=O)c(C(c3nnnn3C(C)(C)C)N(Cc3ccco3)CC3CCCO3)cc2c1 (stereo unspecified)	11	-12	nt	nt	nt	-2.2	0.78	nt	4
O=C(NC1CCCCC1)C(c1ccc(F)cc1)N(CCCN1CCOCC1)C(=O)c1ccc(CN2CCOCC2)o1 (stereo unspecified)	-3	4.6	0	6	-7.8	-2.7	0.6	i	-1
CCCCCCNCC1OCc2ccccc2CO1	-12	-1.1	5	-5	-6.4	-0.5	0.67	i	-7
Cc1ccc(C)c(-c2csc(Nc3ncccn3)n2)c1	-11	6.8	6	6	-2.8	-0.6	0.69	i	0
COc1ccc(CN2CCCC(C(=O)N3CCc4ccccc4C3)C2)cc1OC (stereo unspecified)	-6	1.5	7	2	-0.7	-0.4	0.66	i	-4
Cc1ccc(C)c(/C(O)=C2\C(=O)C(=O)N(Cc3cccnc3)C2c2cccnc2)c1 (stereo unspecified)	2	11	nt	nt	nt	-0.7	0.7	nt	1
O=C(Nc1ccccc1C(=O)O)c1ccc(CN2C(=O)c3ccccc3C2=O)cc1	65	nt	-6	-4	8.5	-0.6	nt	i	1
Cc1ccc2c(C)c(C(=O)Nc3ccc(S(N)(=O)=O)cc3)oc2c1C	-11	-2.4	8	10	0.5	1.0	0.61	i	1
O=C(/C=C/c1ccco1)NC(=S)Nc1ccc(O)c(-c2nc3ccccc3s2)c1	-1	nt	nt	nt	nt	-1.6	nt	nt	-8
O=C1CC(c2ccccc2)CC(O)=C1C=NC1CCCCC1 (stereo unspecified)	-3	6.0	nt	nt	nt	-2.5	0.67	nt	-5
Cc1nnsc1S(=O)(=O)Cc1ccccc1Cl	-1	4.1	nt	nt	nt	2.0	0.72	nt	3
Cc1nn(-c2ccccc2)c(N2CCCC2)c1/C=N/NC(=S)Nc1cc(C(F)(F)F)ccc1Cl	18	nt	nt	nt	nt	-3.6	nt	nt	-6
CC(C)(C)c1cc(NC(=O)CCSc2nnc3ccccn23)cc(C(C)(C)C)c1	-9	-32	nt	nt	nt	-0.4	0.74	nt	6
CSc1ccccc1NC(=O)COC(=O)c1ccc(-n2nc(C)cc2C)cc1	-7	-1.5	nt	nt	nt	2.4	0.7	i	1
CC(Sc1nc2ccccc2s1)C(=O)N(C)Cc1ccccc1 (stereo unspecified)	nt	2.2	-13	-38	-18	-0.4	0.65	nt	-2
CCC(C)n1c(=N)c(C#N)cc2c(=O)n3cccc(C)c3nc21 (stereo unspecified)	-7	-262	-1	0	-2.9	-0.9	0.73	i	-9
COc1ccc2oc(C(=O)Nc3nccs3)c(C)c2c1	-4	-31	2	2	-1.5	-0.3	0.65	i	-6
CC(=O)Oc1ccc(/C=C2\N=C(C3CCCCC3)OC2=O)cc1	-15	6.2	-1	6	-3.9	1.3	0.72	i	4
COc1cccc(C(=O)NC(=S)Nc2ccc(Cl)c(C(=O)O)c2)c1	22	2.0	nt	nt	nt	-1.3	0.69	nt	8
N#CCSc1nnc(C2CCCCC2)n1-c1ccccc1	10	-1.9	nt	nt	nt	-5.4	0.67	nt	6
O=c1cc(CO)occ1OCc1cccc(F)c1	-34	-0.1	nt	nt	nt	0.7	0.7	nt	-1
CCc1ccccc1N1C(=O)C(Cl)=C(N2CCOCC2)C1=O	5	1.9	4	8	-0.2	-1.9	0.71	i	-4
CC1(C)CC(=O)C=C(Nc2ccccc2C#N)C1	-2	-0.2	11	6	0.4	5.0	0.68	i	-1
CCC(C)[C@H](NC(=O)N1CCn2c1nc1ccccc12)C(=O)NCCc1ccc(OC)c(OC)c1 (stereo partly specified)	-5	3.7	-20*	-9.0*	2.9*	0.8	0.71	i	-19
Cc1ccc(CNc2ccc(N3CCOCC3)c(C(=O)O)c2)s1	?	-9.4	nt	nt	nt	2.0	0.7	nt	15
COCCNC(=O)c1onc(CSc2cccc(OC)c2)c1C(=O)O	3	0.2	-18	-20	14	-0.1	0.72	i	8
C/C(=N\NC(=O)c1ccncc1)c1cccs1	1	nt	13	3	-4.5	3.4	nt	i	-15
COc1ccccc1CNC(=O)COC(=O)C1CCN(c2ccc(C(F)(F)F)cn2)CC1	-1	0.0	-8	0	-1.3	3.0	0.67	i	3
O=C1CSC(=S)N1N=Cc1ccc(Cl)s1	nt	nt	nt	nt	nt	36	nt	i	10
C[C@H](CO)N1C[C@H](C)[C@@H](CN(C)Cc2ccc(-c3ccccc3)cc2)Oc2c(NC(=O)c3ccncc3)cccc2C1=O	-1	-33	-15&-11	-38&-17	26&-2.2	0.6	0.8	i	3
N#Cc1nc(-c2ccco2)oc1N1CCC(Cc2ccccc2)CC1	9	-19	nt	nt	nt	2.0	0.74	nt	-14
O=C(Nc1ccccc1N1CCCC1)C1CCN(C(=O)c2ccc(Cl)cc2)CC1	2	0.5	-6	-28	-6.8	0.4	0.61	i	7
O=C(c1ccccc1)c1cc2c(cc1[N+](=O)[O-])OCCO2	-6	0.7	-5	-17	-3.3	-2.6	0.65	i	-5
Cc1nn(C)c(C)c1S(=O)(=O)N1CCC(C(=O)NC2CCCCC2)CC1	-2	0.6	nt	nt	nt	2.5	0.74	nt	-22
C/C(=N\NC(=O)C1COc2ccccc2O1)c1ccc(Cl)s1 (stereo unspecified)	2	nt	-6	8	-1.0	-1.9	nt	i	4

Rewritten with each value named: two of the compounds above.
Cc1nn(C)c(C)c1S(=O)(=O)N1CCC(C(=O)NC2CCCCC2)CC1
  ALR inh: -2
  UCH37 DUB inh: 0.6
  rRNA inh HTS: nt
  rRNA inh HTS OD600: nt
  rRNA inh HTS RFP: nt
  HNF4A DNA FP: 2.5
  E coli growth: 0.74
  FGF22 binding: nt
  Beta2AR agonist: -22
C/C(=N\NC(=O)C1COc2ccccc2O1)c1ccc(Cl)s1 (stereo unspecified)
  ALR inh: 2
  UCH37 DUB inh: nt
  rRNA inh HTS: -6
  rRNA inh HTS OD600: 8
  rRNA inh HTS RFP: -1.0
  HNF4A DNA FP: -1.9
  E coli growth: nt
  FGF22 binding: i
  Beta2AR agonist: 4

(listing goes on)
SMILES	ALR inh	UCH37 DUB inh	rRNA inh HTS	rRNA inh HTS OD600	rRNA inh HTS RFP	HNF4A DNA FP	E coli growth	FGF22 binding	Beta2AR agonist
Cc1cc(Nc2nc(Cl)c(Cl)cc2Cl)n(-c2ccccc2)n1	-1	0.5	nt	nt	nt	0.7	0.71	nt	-8
Cc1ccc(C(=O)Nc2ccncc2)cc1S(=O)(=O)N1CCCCC1	nt	nt	0	-11	5.4	6.7	nt	i	nt
CCCC(=O)Nc1ccc(C(=O)N/N=C/c2cccnc2)cc1	-1	nt	nt	nt	nt	3.1	nt	nt	-5
Cc1c(Cl)cccc1-n1c(SCC(=O)NCc2cccs2)nnc1-c1ccncc1	0	0.6	nt	nt	nt	2.8	0.68	nt	-2
FC(F)(F)c1cc(Oc2ccccc2)ncc1-c1nnc(-c2ccccc2Cl)o1	-2	-8.6	-3	4	-1.5	2.0	0.66	i	6
C/C=C/c1ccc(OCCn2nnc3ccccc32)c(OC)c1	0	2.7	-9	-16	-5.9	-1.4	0.67	i	13
CCn1c(Sc2ccc([N+](=O)[O-])cn2)nnc1-c1ccco1	-5	4.6	9	9	2.7	1.3	0.7	i	-4
O=C(CN1CCOCC1)Nc1ncc(Cc2cccc3ccccc23)s1	-6	2.5	-12	-5	1.9	2.0	0.69	i	6
COc1cc(NC(=O)CC(C)n2ccnc2)cc(OC)c1 (stereo unspecified)	-8	5.5	16	19	1.4	6.1	0.66	i	-1
CC(NC(=O)c1cccc(Cn2cc([N+](=O)[O-])cn2)c1)c1ccc(C(C)(C)C)cc1 (stereo unspecified)	-3	1.0	14	6	-4.6	-0.6	0.78	i	-4
Cc1ccc2c(c1)c(=O)c(Br)c(C)n2Cc1ccccc1	-4	3.2	nt	nt	nt	0.3	0.7	nt	-1
Cc1ccccc1C(=O)Nc1ccccc1Sc1ccccc1	-3	0.8	nt	nt	nt	-2.9	0.73	nt	4
CCCc1nnc(-c2ccc(OC)cc2)o1	-5	1.9	nt	nt	nt	2.8	0.7	i	8
COCCn1c(=S)[nH]c2cc(C(=O)N3CCc4ccccc4C3)ccc2c1=O	2	-0.4	11	9	1.2	-4.3	0.77	i	8
CC(=O)N1CCN(S(=O)(=O)c2ccccc2)C1c1ccccc1 (stereo unspecified)	-11	0.6	nt	nt	nt	0.8	0.68	nt	0
COc1cc2c(cc1OC)CC(=O)NC=C2	nt	-0.8	-1	5	-4.5	4.5	0.69	i	-3
Cc1nc(NS(=O)(=O)c2ccccc2)sc1NC(=O)Nc1ccccc1	99*	-0.8	9	1	0.1	-1.0	0.68	i	-5
O=C(Nc1ccccc1N1CCCC1)c1ccc(F)c(S(=O)(=O)N2CCOCC2)c1	44	2.8	-2	-3	0.2	1.8	0.69	i	-8
CCNC(=O)C1(C)CCCN1Cc1cccc(C(F)(F)F)c1 (stereo unspecified)	nt	nt	6	16	-1.7	1.1	nt	i	nt
COc1ccc(-c2noc(CCC(=O)NCCCN3CCN(c4ccc(F)cc4)CC3)n2)cc1	17	5.2	-4	4	3.4	1.6	0.74	i	0
COC(=O)CSc1nc2c(c(-c3ccc(C)o3)c1C#N)CCCC2	-6	-9.9	nt	nt	nt	2.9	0.73	nt	6
COc1cc(CN2CCC(C(=O)N3CCCC(C)C3)CC2)cc(OC)c1O (stereo unspecified)	-16	3.6	nt	nt	nt	10	0.71	nt	-1
COc1ccc(-c2ncc(CN3CCC(CO)(Cc4cccc(OC)c4)CC3)cn2)cc1	nt	0.0	-10	-6	12	3.2	0.69	i	6
Cc1nc(CC(C)C)cc(C(=O)N2CCCC(CNS(=O)(=O)c3cccs3)C2)n1 (stereo unspecified)	-4	-0.1	14	14	-3.1	3.1	0.65	i	11
CCCCCCN1C=CC(=C/C=C(\C#N)C(=O)OCC)C=C1	5	21*	nt	nt	nt	196	0.64	nt	-88
COc1ccc(CNC(=O)CN(Cc2ccccc2Cl)C(=O)c2csnn2)cc1	0	2.2	6	13	1.9	0.3	0.7	i	-5
O=C(C[n+]1ccccc1)c1ccc(Cl)cc1	5	1.5	9	8	0.9	0.5	0.62	i	-5
COc1ccc(CCNC(=O)c2ccc3ccccc3n2)cc1OC	-5	1.5	-29	-39	-7.7	0.1	0.71	i	1
CCOC(=O)Cc1csc(NC(NC(=O)CC)(C(F)(F)F)C(F)(F)F)n1	-1	4.7	nt	nt	nt	-4.8	0.8	nt	5
CCOc1ccccc1NS(=O)(=O)c1cc2c3c(c1)CC(=O)N3CCC2	13	3.2	4	17	2.9	0.0	0.64	i	0
Cn1cc(S(=O)(=O)N2CCN(c3ccc(F)cc3)CC2)c(=O)n(C)c1=O	nt	3.8	7	11	-11	-1.0	0.78	i	19
O=C(CSc1nnc(-c2ccccc2)c2ccccc12)NCC1CCCO1 (stereo unspecified)	4	6.1	nt	nt	nt	1.9	0.73	nt	-6
COC(=O)c1ccccc1OC(=O)c1cccnc1	-9	0.9	12	9	-5.0	-1.1	0.73	i	0
Cc1noc(C)c1NC(=O)Nc1ccc2c(c1)C(=O)N([C@H](C)CO)C[C@H](C)[C@@H](CN(C)S(=O)(=O)c1cccs1)O2	-3	3.2	0	4	-1.3	2.0	0.71	i	1
O=C(CN1C(=O)/C(=C/c2ccccc2F)Sc2ccccc21)NCCCN1CCOCC1	-8	4.0	-6	-7	6.8	0.1	0.7	i	3

High-throughput results as filed in PubChem BioAssay.

This is a subset. The share of hits here may be higher or lower than overall.
